Screens as filed in PubChem.
CSC inhib: cancer stem cell inhibition; cancer stem cell-like cells viability, luminescence; inhibition, % at 7.5 µM; actives 1.1% (n = 300,000);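 active = mean at 75% or more and at least half the replicates too; inconclusive = mean and replicates disagree; tested in HMLE shEcad cells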;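 also: 0% = median of negative and 100% = median of positive control wells; the first replicate is given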
UUG fidelity: modulators of start codon recognition fidelity in yeast; S. cerevisiae UUG-firefly luciferase reporter, luminescence/redox ratio; activity score, % at 18.7 µM; actives 0.13% (n = 350,000);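 active = replicate mean at a twofold rise or more, about +100% in these data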;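 also: firefly luciferase made from a UUG start codon reports start codon fidelity; reporter light over untreated wells divided by growth signal over untreated wells; some hits fall short of that in this replicate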
Env fusion inh: blocks HIV Env-driven cell-cell fusion; HeLa-JRFL Env/CEM21 cell fusion, luciferase; inhibition, % at 12.3 µM; actives 1.1% (n = 360,000); AID 651610;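 active = mean replicate inhibition score of at least 50 and every replicate individually at or above 50; inconclusive = only one of the two criteria met; inactive = mean below 50 and not all replicates reaching 50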;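 also: 0% = plate neutral controls and 100% = maraviroc near 300 nM; one replicate is shown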
eIF4H inh: inhibitors of RNA binding by human eIF4H | Q15056 | eIF4H fluorescence polarization binding assay | inhibition, % at 35 µM | actives 0.94% (n = 290,000) | AID 2012;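 active = 50% or more with normal probe brightness, or confirmed in later tests; inconclusive = above 50% with abnormal brightness, or retests that disagree; inactive = below 50% or failed in later tests; about a fifth of its hits are not listed in these tables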;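 also: calls also rest on retests at 20 µM and on dose response follow-up; 0% = protein and probe with vehicle and 100% = probe without protein; strong numbers were not always called active; many hits fall short of the cut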
MT1-MMP act inh: inhibitors of human MT1-MMP activation. P50281. HT1080 RFP-PRO-GFP cells, GFP/RFP ratio fluorescence, overnight; percent of plate control window, DMSO zero. GFP/RFP ratio change, % at 20 µM. actives 0.061% (n = 360,000);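 active = GFP/RFP ratio change of at least 30% with cell ATP level not reduced by more than half and red fluorescence within 50% of control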; also: strong numbers were not always called active
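Assay system: RFP-PRO-GFP reporter HT1080 cells; read-out basis: GFP/RFP fluorescence ratio; benchmarks: DMSO wells and RFP-L50D-GFP cells; doses: 20 µM single dose, 1% DMSO; schedule: overnight cell settling, then overnight compound exposure, 37 °C, 5% CO2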
PABP FP inh: PABP-poly(A) binding inhibition; PABP-poly(A) RNA binding, fluorescence polarization; inhibition, % at 35 µM; actives 1% (n = 290,000); P11940;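 active = 50% or more with normal probe brightness, or confirmed in later tests; inconclusive = above 50% with abnormal brightness, or retests that disagree; inactive = below 50% or failed in later tests; about a fifth of its hits are not listed in these tables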;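 also: calls also rest on retests at 20 µM and on dose response follow-up; controls were probe without protein and protein plus probe with vehicle; some compounds called inactive have numbers as strong as hits; many hits fall short of the cut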
Rce1 inhib: yeast Ras-converting enzyme inhibition; Q03530; yeast membranes, quenched prenylated peptide cleavage fluorescence; calls only; actives 0.27% (n = 290,000); AID 2563;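 active = fall in fluorescence gain of 50% or more versus controls, with final raw signal at or below 3038400; inconclusive = same 50% fall but final raw signal above 3038400; inactive = fall in fluorescence gain under 50%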;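 also: plate controls were neutral control wells for no effect and wells lacking membranes for full effect; tested at 10 µM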
Target sequence (Q03530 whole entry, looked up): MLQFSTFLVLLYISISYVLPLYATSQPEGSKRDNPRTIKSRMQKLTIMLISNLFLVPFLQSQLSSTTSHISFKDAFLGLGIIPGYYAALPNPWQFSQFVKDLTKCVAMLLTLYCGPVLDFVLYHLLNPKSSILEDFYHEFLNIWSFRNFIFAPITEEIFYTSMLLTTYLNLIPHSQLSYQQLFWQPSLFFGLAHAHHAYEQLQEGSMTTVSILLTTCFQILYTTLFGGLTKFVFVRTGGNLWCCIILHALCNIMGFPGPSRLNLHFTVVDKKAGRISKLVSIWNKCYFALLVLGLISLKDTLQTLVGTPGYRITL
MT1-MMP act inh RFP: further read-out of MT1-MMP act inh, marked with its call; RFP signal change, %; measured here: RFP expression control read;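 0 = vehicle wells; hits needed this value within 50% of zero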
Numbers without * were called inactive; i = inactive; ? = inconclusive; . = not tested or not shown.

SMILES | CSC inhib | UUG fidelity | Env fusion inh | eIF4H inh | MT1-MMP act inh | MT1-MMP act inh RFP | PABP FP inh | Rce1 inhib
Cc1ccc(N=Nc2c(C)[nH][nH]c2=O)c(C)c1 | 44 | -8 | -35 | -2 | 15 | -1 | -7 | i
Cn1cnnc1SCC(=O)NNC(=O)c1ccc(Cl)cc1 | 23 | . | 15 | 8 | 5 | 3 | 2 | i
CCCSc1nc2sc3c(c2c(=O)[nH]1)CCN(Cc1ccccc1)C3 | -16 | -13 | . | ? | -83 | 3 | ? | i
C=CCN1c2ccccc2[C@]23C[C@@H](C(=O)OC)N(C(=O)OCC)C2=NC(C(=O)OC)=C(C(=O)OC)[C@H]13 | 4 | 11 | -88 | . | 1 | 1 | . | i
CC12CN3CC(C)(CN(C1)C3c1ccc3ccccc3c1O)C2=O (stereo unspecified) | 4 | 18 | . | -1 | -2 | 3 | 4 | .
COc1ccc(C)cc1NC(=O)NNC(=O)C1CCC(C(C)(C)C)CC1 (stereo unspecified) | -5 | -13 | 14 | 5 | -2 | -4 | -11 | i
COc1ccc(/C=N/NC(=O)C(=O)NCC2CCCO2)cc1 (stereo unspecified) | 6 | -5 | . | -8 | -4 | 1 | 9 | i
COc1ccc(NC2CCCN(C(=O)c3ccc(C)c(N4CCNC4=O)c3)C2)cc1 (stereo unspecified) | -5 | -8 | 0 | -13 | -1 | 1 | -2 | .
Oc1ccc(NCc2cccs2)cc1 | 2 | -21 | -1 | 6 | 11 | 3 | 2 | i
O=C(c1ccc(Cl)c(S(=O)(=O)N2CCCCC2)c1)N1CCCC(C(F)(F)F)C1 (stereo unspecified) | -12 | -16 | . | . | 2 | -10 | . | .
Cc1ccc(-c2nnn(CC(=O)N(Cc3ccccc3)C(C(=O)NC3CCCC3)c3ccncc3)n2)o1 (stereo unspecified) | . | -20 | . | -12 | -5 | -2 | -3 | i
CCCCNC(=O)CSc1nc(O)c(Cc2ccc(OC)cc2)c(=O)[nH]1 | -12 | 7 | -6 | -9 | 0 | 0 | 7 | i
Cc1cc(NC(=O)c2cccc(S(=O)(=O)N3CCC(C)CC3)c2)no1 | -9 | -6 | . | 3 | 4 | -2 | -8 | i
CN(Cc1ccco1)C(=O)c1c[nH]c2ccc(S(=O)(=O)Nc3ccc4c(c3)OCCO4)cc2c1=O | 3 | . | . | 8 | -3 | -2 | 10 | i
NC(=O)COC(=O)CCCSc1nc2ccccc2s1 | -5 | -30 | -6 | -4 | -9 | 0 | -18 | i
C=CCc1cccc(Cl)c1OCCCNC1CCCC1 | 17 | -28 | -27 | 10 | 1 | 1 | -3 | i
CCOC(=O)Cc1csc(NC(=O)Cn2c(=O)oc3ccccc32)n1 | -19 | 19 | 1 | -2 | -1 | -2 | 3 | i
COc1ccc(CN2CCC[C@]3(N[C@H](c4ccccc4)[C@@H]4C(=O)N(C)C(=O)[C@@H]43)C2=O)cc1 | . | -24 | 10 | . | -1 | 4 | . | .
CCNc1nc(Oc2ccc(=O)n(-c3ccccc3)n2)nc(N2CCOCC2)n1 | -1 | -6 | . | -9 | -2 | -2 | -5 | i
Cc1ccc(Cn2ccc(NC(=O)c3cc(-c4ccc(F)cc4)on3)n2)cc1 | -14 | . | -33 | 0 | -7 | -3 | 5 | i
O=C(CN1CCN(c2ccccc2)CC1)Nc1ccc(Oc2ccccc2)cc1 | -2 | 15 | 2 | -6 | 3 | -3 | -1 | i
CN1CCc2nc(SCC(=O)Nc3ccc(Cl)cc3)c(C#N)cc2C1 | -5 | -2 | . | . | -5 | -11 | . | i
O=c1[nH]c(N2CCN(Cc3ccc4c(c3)OCO4)CC2)nc2c1CCCC2 | -5 | -23 | 32 | 3 | -3 | 1 | -1 | i
O=C(NC(Cc1c[nH]c2ccccc12)C(=O)Nc1ccc(OC(F)(F)F)cc1)c1cccs1 (stereo unspecified) | 51 | -17 | 10 | -6 | -18 | -13 | -6 | i
Oc1ccc(C(=S)N2CCN(Cc3ccccc3)CC2)cc1 | 14 | -26 | 12 | 1 | 0 | -5 | 4 | i

(more compounds)
SMILES | CSC inhib | UUG fidelity | Env fusion inh | eIF4H inh | MT1-MMP act inh | MT1-MMP act inh RFP | PABP FP inh | Rce1 inhib
COc1ccc(OC)c(C2=C[N+](=O)C(C)(C)C(C)(C)N2[O-])c1 | -4 | -6 | . | -11 | 7 | 7 | -13 | i
COc1ccc(-c2cc3ccc(O)cc3oc2=O)cc1 | 59 | -42 | -100 | 5 | -4 | -5 | 8 | ?
COc1ccc(CCNC(=O)c2ccc(Cl)nc2)cc1 | 1 | -11 | 13 | -2 | 4 | 1 | 13 | i
Nc1cccc(N2C(=O)c3cccc4c(N)ccc(c34)C2=O)c1 | 7 | -24 | -10 | ? | -70 | -5 | ? | i
CCOc1nc(Nc2ccc(F)cc2)nc(N2CCN(c3ccc(OC)cc3)CC2)n1 | -6 | -13 | . | 1 | -1 | -7 | -2 | i
O=c1[nH]c2ccc(N/C(=N/S(=O)(=O)c3ccccc3)c3ccccc3)cc2[nH]1 | -26 | . | . | -5 | 1 | 0 | 38 | i
O=[N+]([O-])c1ccc(Cl)c(/C=N/N2CCN(C3c4ccccc4-c4ccccc43)CC2)c1 | . | -14 | . | -2 | 1 | 2 | -7 | .
CC(=O)Nc1c(-c2ccc(C)cc2)nc2ccc(Cl)cn12 | . | -26 | 6 | . | -1 | 3 | . | .
COC(=O)c1ccc(CNC(=O)c2ccc(COc3ccccc3)cc2)cc1 | -7 | . | -2 | 5 | 1 | -1 | -8 | i
CC(=O)Nc1ccc(NC(=O)c2csc([C@@H]3C[C@H](O)[C@@H](CO)O3)n2)cc1 | . | -36 | 8 | . | -1 | 4 | . | .
CSc1cccc(NS(=O)(=O)c2ccc3c(c2)CCN3C(C)=O)c1 | 15 | -13 | 13 | 1 | -6 | -29 | 4 | i
O=C(CN1CCN(c2cccc(C(F)(F)F)c2)CC1)Nc1ccc2c(c1)OCCCO2 | . | -8 | -6 | . | 1 | 1 | . | .
COC(=O)c1ccc(C2=NOC(C)(c3nnc(-c4cccc(Cl)c4)o3)C2)cc1 (stereo unspecified) | -3 | -8 | 4 | . | 2 | 3 | . | i
O=C(Cc1ccc([N+](=O)[O-])cc1)Nc1ccc(C(=O)N2CCOCC2)cc1 | . | 1 | 38 | 0 | 2 | 0 | 1 | i
NC(=O)C1CNc2ccccc2O1 (stereo unspecified) | -7 | . | . | 3 | 2 | 4 | 0 | i
COCCCNC(=O)Cn1cc(/C=C(\C#N)C(=O)N2CCN(c3ccccc3)CC2)c2ccccc21 | -7 | . | 0 | 6 | -2 | -4 | 5 | i
CCN(CC)CC(=O)c1c[nH]c2ccc(OC)cc12 | 3 | 0 | 20 | -6 | -14 | -2 | -3 | i
CC(=O)C[C@H](O)CC(=O)[C@H]1OC(=O)[C@@H](C)C/C=C\Cc2ccccc21 | . | -4 | 18 | . | 1 | 4 | . | .
CCC(C(=O)NC1C(=O)N2C(C(=O)O)=C(CSc3nnc(C)s3)CSC12)c1ccccc1 (stereo unspecified) | -2 | -11 | -5 | . | -7 | 2 | . | .
CCOc1ccc(-c2nnc(SCC(=O)N3CCNC3=O)o2)cc1 | -5 | -27 | -51 | . | -2 | -2 | . | .
Cc1ccccc1C(=O)NNC(=O)C1CC(=O)N(Cc2ccccc2)C1 (stereo unspecified) | 2 | . | -5 | . | -1 | 8 | . | i
Cc1cc(=O)[nH]c(SCC(=O)NC2CCCCCCC2)n1 | -3 | -11 | -5 | . | 0 | 2 | . | .
COc1ccc(C2C(C(=O)c3cccs3)=C(O)C(=O)N2Cc2cccnc2)cc1OC (stereo unspecified) | 3 | . | 2 | -9 | -1 | 3 | 10 | i
O=C(CSC1=NCCS1)N1CCOCC1 | -3 | -4 | . | -4 | 2 | 7 | 12 | i
O=C(Cc1csc(-c2cccc(Cl)c2)n1)Nc1cccc(S(=O)(=O)NC2=NCCC2)c1 | -11 | 6 | . | . | 0 | -13 | . | i

The list continues:
SMILES | CSC inhib | UUG fidelity | Env fusion inh | eIF4H inh | MT1-MMP act inh | MT1-MMP act inh RFP | PABP FP inh | Rce1 inhib
COc1ccc(N2C(=O)C3CCCN3C2c2cccc(OC)c2)cc1 (stereo unspecified) | 0 | -1 | -13 | -6 | -1 | 4 | -1 | i
NS(=O)(=O)c1ccc(CCNCc2cccnc2)cc1 | -18 | -11 | 8 | 8 | -4 | -5 | 7 | i
Cc1cccc(S(=O)Cc2ccc(C(=O)NC3CCN(Cc4ccccc4)CC3)o2)c1 (stereo unspecified) | 2 | -7 | 1 | -10 | 0 | -1 | 1 | i
Cc1noc(C)c1COc1ccccc1C(=O)NCCOc1ccccc1 | . | 0 | -146 | . | 2 | 1 | . | .
CCOc1ccc2nc(NCCNC(=O)C(C)(C)C)c(C)cc2c1 | -7 | -5 | 1 | -14 | 4 | 2 | 6 | i
NS(=O)(=O)c1ccc(NC(=O)c2ccc(S(=O)(=O)N3CCc4ccccc43)cc2)cc1 | 4 | . | 18 | 19 | -1 | -5 | 10 | i
CCOC(=O)C1CCN(C(=O)Nc2ccc(Cl)cc2Cl)CC1 | -6 | 6 | 27 | -3 | 1 | 0 | 2 | i
COc1ccc(-n2nnc3c(=O)n(Cc4cccc(C)c4)cnc32)cc1 | 0 | -11 | 5 | -10 | -3 | -3 | 0 | i
CC1(C)CC(=O)C(C(=O)/C=C/NCCc2ccccc2)C(=O)C1 | -7 | . | . | -5 | -6 | 0 | 6 | i
COc1ccc(CNC(=O)c2c(C)cc(=O)oc2C)cc1OC | -12 | -12 | . | -9 | 5 | 6 | 0 | i
CCC(C)(C)n1nnnc1C(c1cc2cc(C)cc(C)c2[nH]c1=O)N1CCN(Cc2ccc3c(c2)OCO3)CC1 (stereo unspecified) | . | -1 | -73 | -10 | -14 | -16 | 1 | i
O=c1[nH]cc([N+](=O)[O-])cc1Br | 8 | -17 | -31 | 1 | 21 | 7 | -4 | i
Cc1cc(NC(=S)N(Cc2ccc(Br)cc2)Cc2ccc(C(=O)O)cc2)ccc1Cl | 14 | . | 19 | -3 | 6 | 0 | -12 | i
CN(CC#CC1(O)c2ccccc2-c2ccccc21)Cc1ccccc1 | . | 72 | -5 | 0 | -1 | 1 | 5 | i
CC(=O)Nc1cccc(-c2nc3ccccc3c(=O)o2)c1 | -21 | -9 | -3 | -14 | -2 | 3 | -3 | i
COc1ccc(N2CCN(c3ccnc4cc(Cl)ccc34)CC2)cc1 | -18 | -2 | 12 | 5 | 2 | -2 | -3 | i
O=C(CSc1nnc2scc(-c3ccc(F)cc3)n12)NCc1ccco1 | 11 | -20 | -25 | 5 | -2 | -5 | 0 | i
NS(=O)(=O)c1ccc(NC2=CC(c3ccc([N+](=O)[O-])cc3)N(c3ccc(S(N)(=O)=O)cc3)C2=O)cc1 (stereo unspecified) | -2 | 4 | 9 | 0 | 11 | 6 | 3 | i
Cc1nc(Nc2ccccc2O)c2oc3ccccc3c2n1 | 1 | -7 | 9 | -9 | 3 | 5 | 18 | i
CCC1(c2ccccc2)NC(=O)N(CC(=O)N(C)CC(=O)Nc2ccc(F)c(F)c2F)C1=O (stereo unspecified) | 3 | . | 7 | . | 2 | 4 | . | .
COc1cc(CN2CCC(C(=O)NCC(C)(C)CN(C)C)CC2)ccc1OCc1ccccc1 | 4 | -5 | 16 | -6 | 7 | 1 | 34 | i

Complete entries from above. Order of screens: CSC inhib	UUG fidelity	Env fusion inh	eIF4H inh	MT1-MMP act inh	MT1-MMP act inh RFP	PABP FP inh	Rce1 inhib
`CN(CC#CC1(O)c2ccccc2-c2ccccc21)Cc1ccccc1` in the list: .	72	-5	0	-1	1	5	i
`CCC1(c2ccccc2)NC(=O)N(CC(=O)N(C)CC(=O)Nc2ccc(F)c(F)c2F)C1=O` (stereo unspecified) in the list: 3	.	7	.	2	4	.	.

Compounds were not picked by outcome (roughly 2.9% active in at least one column).
